Assay outcomes as filed in PubChem BioAssay.
AF4-AF9 inh: MLL-AF4/AF9 protein interaction inhibition; P42568; AlphaScreen, biotin-AF4 peptide binding to FLAG-AF9; inhibition, % at 10 µM; hit rate 0.47% among 350,000;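 active = every replicate reaching a set inhibition limit, whatever the replicate mean, cut at about 25% in these data; inconclusive = mean inhibition reaches that limit but some replicates miss it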;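 also: 0% = plate neutral control median and 100% = total signal loss; the record names both 10 and 1 µM as test concentration; the first replicate is given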
Target sequence (P42568 whole entry, looked up): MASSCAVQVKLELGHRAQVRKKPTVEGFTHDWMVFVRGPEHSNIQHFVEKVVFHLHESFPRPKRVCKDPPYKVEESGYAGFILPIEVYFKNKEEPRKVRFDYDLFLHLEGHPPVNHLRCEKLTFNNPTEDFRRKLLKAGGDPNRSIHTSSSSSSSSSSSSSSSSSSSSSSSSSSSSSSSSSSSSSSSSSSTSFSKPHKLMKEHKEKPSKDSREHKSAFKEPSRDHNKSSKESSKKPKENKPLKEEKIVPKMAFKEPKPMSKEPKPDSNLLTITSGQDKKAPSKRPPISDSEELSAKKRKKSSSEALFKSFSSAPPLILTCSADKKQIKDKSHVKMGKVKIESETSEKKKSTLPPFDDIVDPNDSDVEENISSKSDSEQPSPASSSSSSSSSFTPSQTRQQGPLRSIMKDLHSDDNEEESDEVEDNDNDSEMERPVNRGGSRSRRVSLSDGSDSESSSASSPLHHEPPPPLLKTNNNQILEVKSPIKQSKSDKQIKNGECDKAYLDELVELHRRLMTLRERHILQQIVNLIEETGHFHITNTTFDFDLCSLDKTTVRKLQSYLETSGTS
Ecoli rRNA inh: inhibits bacterial ribosomal RNA function over humanized ribosomes; AID 720706; E. coli WT GFP vs humanized-ribosome RFP mutants, fluorescence, 24 h; active compounds read low; DMSO median 0, no signal -100; hit rate 1.6% among 350,000; GFP signal change (wild-type ribosome), % (test concentration not listed);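 active = significant combined selectivity score with lowered wild-type GFP, culture density cut under 30%, mutant RFP and density less affected; inactive = any of these conditions unmet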; also: one replicate is shown; some compounds called inactive have numbers as strong as hits
Beta apoptosis: beta cell apoptosis inhibition; INS-1E cytokine-induced death, ATP luminescence, 48 h; percent of positive-control rescue, neutral wells zero; protection from apoptosis, % (no concentration beside the values); AID 435005; hit rate 0.8% among 300,000;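 active = all replicates at 75% or more, or half of them and the mean; inconclusive = half reach 75% but not the mean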;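 also: 0% = cytokine-treated negative control wells and 100% = positive control rescue; higher means more ATP so stronger rescue from cytokine killing; wells of about 40 µL received 100 nL stock; the first replicate is given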
T cruzi inh: T. cruzi replication inhibition; hit rate 1.4% among 300,000; AID 1885; T. cruzi beta-gal in NIH3T3, luminescence, 90 h; inhibition, % (no concentration beside the values);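 active = mean inhibition across valid replicates above about 55%, limit read from the data; inconclusive = mean below that limit but half or more replicates reach it; inactive = mean below it, under half of replicates reach it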;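 also: signal also drops with host cell toxicity which is not excluded here; 0% = plate median of DMSO wells and 100% = zero luminescence signal; higher percent means less beta-gal luminescence so fewer parasites; stock transfer was 50 nL into about 50 µL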
FGF22 binding: shifts melting point of recombinant human FGF22; calls only at 9.99 µM; hit rate 1.5% among 340,000; Q9HCT0; recombinant FGF22 thermal shift, SYPRO orange fluorescence; percent of sucrose octasulfate shift, DMSO zero;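 active = melting point raised past a set limit in the mean and every replicate; inconclusive = no clear call; three in four hits are not shown here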
Target sequence (Q9HCT0 whole entry, looked up): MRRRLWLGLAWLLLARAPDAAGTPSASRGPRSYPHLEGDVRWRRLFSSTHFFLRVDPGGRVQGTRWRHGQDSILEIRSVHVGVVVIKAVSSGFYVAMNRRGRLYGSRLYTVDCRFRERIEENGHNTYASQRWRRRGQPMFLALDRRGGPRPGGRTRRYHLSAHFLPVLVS
Calb FLC: C. albicans growth modulation with fluconazole; C. albicans CaCi-2 (fluconazole-resistant clinical isolate) + fluconazole, Alamar Blue growth, 48 h; growth inhibition, % (no concentration beside the values); hit rate 0.57% among 300,000;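 active = most replicates above 75%; inconclusive = exactly half above 75%; inactive = most below 75%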;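 also: all wells also contain fluconazole at 8 µg/ml as a sub-toxic cotreatment; 0% = median of DMSO wells and 100% = median of geldanamycin control wells; wells of about 8 µL received 7.5 nL stock; the first replicate is given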
RanGTP-Imp inh: inhibitors of RanGTP-importin-beta interaction, primary screen, biochemical, FRET, CFP-Ran, YFP-importin-beta, homogeneous. cell-free CFP-Ran/YFP-importin-beta FRET ratio. inhibition, % (no concentration beside the values). hit rate 1.1% among 300,000;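 active = most replicates above 15%; inconclusive = exactly half above 15%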;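 also: 0% = DMSO wells and 100% = Ran loaded with GDP instead of GTP; wells of about 40 µL received 100 nL stock; the first replicate is given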
ALR inh: inhibitors of human sulfhydryl oxidase ALR; P55789; purified ALR, DTT oxidation, H2O2 HRP-luminol luminescence; inhibition, % (concentration not given with the values); hit rate 3.8% among 290,000; AID 485317;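 active = mean and each replicate at 75% or more; inconclusive = only one of the two met; inactive = neither met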;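 also: stock transfer was 7.5 nL into about 7.5 µL; 0% = neutral wells and 100% = wells with inactivated enzyme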
Target sequence (P55789 whole entry, looked up): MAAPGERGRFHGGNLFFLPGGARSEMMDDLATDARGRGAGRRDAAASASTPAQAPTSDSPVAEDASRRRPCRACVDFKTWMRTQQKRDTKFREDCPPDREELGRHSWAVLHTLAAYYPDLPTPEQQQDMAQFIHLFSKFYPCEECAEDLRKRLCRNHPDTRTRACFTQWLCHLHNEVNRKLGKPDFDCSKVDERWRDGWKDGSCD
Ecoli rRNA inh OD600: second read-out of Ecoli rRNA inh, no call of its own (marks repeat the call); OD600 change, %; measured here: OD600 growth;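 optical density of the mix in the first replicate; 0 = DMSO median and -100 = no signal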
Ecoli rRNA inh RFP: further read-out of Ecoli rRNA inh, marked with its call; RFP signal change, %; measured here: RFP humanized mutant strains;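 first replicate; 0 = DMSO median and -100 = no signal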
* = called active by the depositor; i = inactive; ? = inconclusive; . = not tested or not shown. Some of the compounds tested (hit frequency here may not be typical).

SMILES	AF4-AF9 inh	Ecoli rRNA inh	Ecoli rRNA inh OD600	Ecoli rRNA inh RFP	Beta apoptosis	T cruzi inh	FGF22 binding	Calb FLC	RanGTP-Imp inh	ALR inh
Cc1ccc(S(=O)(=O)N2CCOCC2)cc1C(=O)c1nccn1C	-1.4	11	5	3.4	-2	-16	i	-21	6.3	-13
CCC(C)Sc1nc2c(c(=O)[nH]1)C(c1cccs1)C1=C(CCCC1=O)N2 (stereo not given)	-12	-5	-10	0.7	1	-6	i	4	-0.9	.
Nc1ncnc2nc(SCc3ccccc3)[nH]c12	.	.	.	.	-4	-1	.	4	-2.8	-44
CC(=O)c1ccc(NC(=O)CCc2c(C)nn(-c3ccc(N4CCOCC4)nn3)c2C)cc1	-2.6	-15	-29	-4.3	5	7	i	-1	-1.3	-1
CCCCc1ccc(NC(=O)COc2ccc(C(=O)Nc3ccccc3C)cc2)cc1	.	.	.	.	.	-18	.	-16	-0.6	1
CCOc1cc2c(C)cc(=O)oc2cc1Cl	2.4	6	-1	-2.8	-9	-13	i	-21	3.0	-4
CCOC(=O)c1c(C)c(C(=O)NCc2ccco2)c(C)n1CC	-1.7	-4	-4	-2.9	8	-4	i	7	-2.0	-11
Cc1cccc(/C=C2/SC(=O)N(Cc3ccccc3Cl)C2=O)n1	-2.5	2	-3	-2.4	7	33	i	2	6.4	-4
Cc1cccc(CN2CCN(Cc3ccc4nonc4c3)CC2CCO)n1 (stereo not given)	.	6	-5	-5.8	3	8	i	5	-4.9	-4
CCOc1ccc(-c2cc(C(=O)OC)[nH]n2)cc1	-2.0	3	2	0.8	5	-1	i	-1	2.0	9
CCOc1ccc(CCNC(=O)CCc2nnc3ccc(N4CCCC4)nn23)cc1OCC	-0.1	-4	-1	-0.2	-2	3	i	-2	-1.8	-2
Cc1ccc(NS(=O)(=O)c2c(C)nc3sccn3c2=O)cc1C	-0.7	12	1	7.3	5	20	i	0	4.6	0
NCCc1nnc(SCc2c(Cl)cccc2Cl)o1	-2.5	-6	-4	1.9	-5	0	i	5	-2.3	-11
Cc1ccc(N(CC(=O)NCC2CCCO2)C(=O)CNS(=O)(=O)c2ccc(Cl)cc2)cc1 (stereo not given)	-5.6	-1	-4	1.1	6	1	i	-4	-0.5	0
Cc1ccccc1-c1c(C)oc2cc(O)ccc2c1=O	.	.	.	.	1	-10	.	0	1.7	-10
Cc1n(Cc2ccccc2)c2cc([N+](=O)[O-])ccc2[n+]1Cc1ccccc1	5.0	9	7	-0.2	4	8	i	1	4.9	-12
Cc1ccc(NC(=O)CC2S/C(=N/c3nccs3)N(C)C2=O)cc1C (stereo not given)	.	.	.	.	-2	5	.	-2	2.1	-4
O=C(O)c1nc(N2CCOCC2)nc(N2CCOCC2)n1	-4.4	9	2	2.4	0	-12	i	-3	2.8	-2
Cc1ccc(OCC(=O)N2CCCC(CCC(=O)N(C)CCc3ccccn3)C2)cc1 (stereo not given)	-1.2	10	1	0.7	5	13	i	44	6.1	-16
CC(Cc1nnc(N)s1)c1ccccc1 (stereo not given)	-2.2	5	9	-3.3	.	-9	i	-5	-5.5	-15
Cc1ccc(C)c(NC(=O)CNS(=O)(=O)c2ccccc2)c1	.	.	.	.	-1	-4	.	0	7.0	2
CN(CC(=O)Nc1cccc(F)c1)C(=O)c1cc([N+](=O)[O-])ccc1N1CCCCC1	16	-11	-5	8.9	-2	5	i	1	?	0
COc1ccc(Cc2nc3ccc(C(=O)N(C)Cc4cc(C)[nH]n4)cc3o2)cc1OC	-5.2	2	9	-3.3	-5	-7	i	3	-0.7	0
COc1cc(OC)c(NC(=O)CCNS(=O)(=O)c2cc(Br)cnc2N)cc1Cl	.	.	.	.	0	11	.	-22	2.8	.
CC(Sc1cccc[n+]1[O-])C(=O)Nc1ccc([N+](=O)[O-])cc1Cl (stereo not given)	2.2	2	-3	1.9	-5	-8	i	2	?	-5
CNC(=O)C12CC3CC(CC(Cl)(C3)C1)C2	.	.	.	.	-4	-11	.	-13	-0.8	-13
COc1cccc(/C=N/NC(=O)C(=O)NCc2ccco2)c1O	.	.	.	.	-4	-17	.	28	-0.3	0
OCCOCCOc1cccc2[nH]ccc12	-0.2	11	8	1.2	2	-12	i	32	0.4	-29
CCOc1ccc(CN=C(N)N=C(N)N)cc1Cl	.	.	.	.	0	3	.	-3	-3.6	-5
O=C(CSc1ncccn1)NN=C1CCCCCC1	.	.	.	.	.	-9	.	-2	0.4	15
O=C(NCCOc1ccccc1)C(c1ccccc1)c1ccccc1	.	.	.	.	-5	-17	.	-5	1.2	-5
O=C(CNS(=O)(=O)c1cccs1)N1CCCCC1	1.9	3	3	-1.9	-2	-16	i	-3	4.1	-2
O=C1N=C(N2CCN(c3ccccc3)CC2)S/C1=C/c1cccs1	9.5	-43	-66	-2.2	-7	6	i	-2	-1.0	-4
CC(Oc1cc(Cl)ccc1Cl)C(=O)N/N=C\c1ccnn1C (stereo not given)	.	.	.	.	-5	-7	.	-1	0.3	41
O=C(Nc1ccc2c(c1)OCO2)c1ccc(=O)[nH]n1	-0.8	18	2	-3.8	1	25	i	2	-1.3	-10
COc1ccc(CCNC(=O)C2CCN(C(=O)c3ccc(C(C)(C)C)cc3)CC2)cc1OC	-0.1	5	1	1.5	-3	5	i	7	-1.5	.
CCOC(=O)C1=C(c2ccccc2)NC(SC)=C(C#N)C1c1ccco1 (stereo not given)	-47	-42	-54	-10	6	2	i	1	?	27
CC(C)N1CC(O)=C(c2ccccc2)C1=N	9.6	13	16	-5.9	-12	-18	i	-1	1.5	28
O=C(Cn1nc(-c2ccc(Cl)cc2)ccc1=O)NCCCN1CCN(Cc2ccccc2)CC1	4.1	-7	-12	-4.6	-2	8	i	-22	?	8
CCN(CC)C(=O)c1sc(NC(=O)Cc2ccccc2)c(C#N)c1C	.	.	.	.	0	-1	.	14	5.4	-4
O=C(CN(Cc1ccco1)C(=O)c1nsc(Cl)c1Cl)NC1CCCCC1	0.2	-5	-6	-2.4	.	12	i	8	-1.5	10
COc1ccc(NC(=O)CCCn2c(=O)c3sccc3n(Cc3cccc(C)c3)c2=O)cc1	3.1	12	26	12	-3	19	i	6	-4.0	-15
O=C(C(=O)N1CCc2ccccc2C1)c1cn(CC(=O)N2CCOCC2)c2ccccc12	4.4	4	8	3.6	-1	-16	i	-2	-5.4	.
CC(C)COC(=O)C1C(=O)CC(C)(O)C(C(=O)OCC(C)C)C1c1cccnc1 (stereo not given)	1.2	.	.	.	-4	9	.	-2	-5.4	-10
CCc1nc(N)c(C#N)c(-c2cccc3ccccc23)c1C	.	.	.	.	2	0	.	9	-0.7	-9
COc1ccccc1NC(=O)NC(=O)c1ccccc1	-2.0	6	8	1.3	4	-8	i	-7	-0.2	0
COCCCn1c(SCC(=O)N2CCOCC2)nnc1-c1ccco1	9.2	3	1	0.5	-2	-1	i	6	0.3	3
COc1ccc(C(=O)Nc2ccc3[nH]ccc3c2)cc1OC	0.0	-10	3	-3.1	0	-8	i	3	2.9	-15
Cc1nn(CC(=O)NCc2ccccc2)c(C)c1[N+](=O)[O-]	.	.	.	.	3	-13	.	-1	0.1	-36
CCOc1cccc(SCc2noc(C(=O)NC(C)C)c2C(=O)O)c1	-2.0	-10	-5	-1.9	-3	-19	i	0	4.0	28
(continued)
SMILES	AF4-AF9 inh	Ecoli rRNA inh	Ecoli rRNA inh OD600	Ecoli rRNA inh RFP	Beta apoptosis	T cruzi inh	FGF22 binding	Calb FLC	RanGTP-Imp inh	ALR inh
N#CCn1c(Cc2ccccc2)nc2ccccc2c1=O	-0.7	4	3	7.8	.	-4	i	-2	5.4	-4
Cc1ccc(C(C(=O)NC(C)(C)C)N(Cc2cccnc2)C(=O)C(=O)NC2CCCCC2)o1 (stereo not given)	-1.4	-4	6	1.4	-5	9	i	5	7.4	-3
O=C(NCCCNCc1ccccc1)c1ccc(/C=N/O)nc1	.	5	18	-0.4	-2	-14	.	-10	0.7	-13
C=CCOc1cccc(C2C(C(=O)c3cc4ccccc4o3)=C(O)C(=O)N2c2cc(C)on2)c1 (stereo not given)	-1.9	-9	-4	2.3	-7	-8	i	1	-0.9	-12
COc1ccc(C2(c3ccc(OC)cc3)NC(=O)N(CC(=O)N3CCOCC3)C2=O)cc1	-11	9	12	1.7	-10	.	i	.	.	0
CCCN(CCC)Cc1c(C(=O)N/N=C/CCc2ccccc2)nnn1-c1nonc1N	-0.6	7	9	2.0	3	5	i	-4	0.0	-1
COc1ccc(NS(=O)(=O)c2ccc(C)c(C(=O)NNC(=O)c3csc(N4CCOCC4)n3)c2)cc1	-5.3	-1	0	2.9	1	-8	i	.	-0.9	-17
Cc1ccc(C(C)C)c(OCC(=O)Nc2ccccc2N2CCN(C)CC2)c1	.	.	.	.	-1	32	.	30	4.6	-2
Cc1occc1C(=O)Nc1ccc2c(c1)OCCO2	.	.	.	.	14	6	.	-26	1.6	-2
CCC(=O)NCc1ccc(-c2nc3ncccc3o2)cc1	7.4	7	-6	2.9	-5	-12	i	-1	-0.7	-1

An excerpt of these results, in markdown:
| Molecule | AF4-AF9 inh | Ecoli rRNA inh | Ecoli rRNA inh OD600 | Ecoli rRNA inh RFP | Beta apoptosis | T cruzi inh | FGF22 binding | Calb FLC | RanGTP-Imp inh | ALR inh |
| --- | --- | --- | --- | --- | --- | --- | --- | --- | --- | --- |
| O=C(NCCCNCc1ccccc1)c1ccc(/C=N/O)nc1 | . | 5 | 18 | -0.4 | -2 | -14 | . | -10 | 0.7 | -13 |
| Cc1occc1C(=O)Nc1ccc2c(c1)OCCO2 | . | . | . | . | 14 | 6 | . | -26 | 1.6 | -2 |

The results go on:
SMILES	AF4-AF9 inh	Ecoli rRNA inh	Ecoli rRNA inh OD600	Ecoli rRNA inh RFP	Beta apoptosis	T cruzi inh	FGF22 binding	Calb FLC	RanGTP-Imp inh	ALR inh
COc1cccc(-c2ccc(NC(=O)C3CCCN(Cc4cc(C)[nH]n4)C3)cc2)c1 (stereo not given)	2.7	-7	0	6.7	2	5	i	-1	-6.5	1
COC(=O)c1ccc(C2C(C(=O)c3cc4ccccc4o3)=C(O)C(=O)N2CCN2CCOCC2)cc1 (stereo not given)	0.0	9	8	-5.9	-7	-18	i	-3	3.4	4
CCN(CC)CCN1C(=O)c2oc3ccccc3c(=O)c2C1c1ccc(F)cc1 (stereo not given)	.	.	.	.	-3	-7	.	0	1.7	2
Cn1cccc1C(=O)NNC(=O)COc1ccccc1F	-2.3	2	7	-3.3	-8	-4	i	-3	5.5	-1
Cc1cccc(CC(C)NC(=O)c2oc3c(F)cccc3c2C)n1 (stereo not given)	-5.0	-20	-18	-0.5	0	1	i	7	4.0	0
CCOc1ccc(NC(=O)Nc2cc(OCC(F)(F)F)cc(OCC(F)(F)F)c2)cc1	-4.1	-19	-14	-3.7	20	47	i	-15	1.1	0
COc1cc(/C=C/C(=O)OCC(=O)Nc2ccc(C)cc2[N+](=O)[O-])ccc1O	-7.5	1	5	2.5	0	11	i	41	4.4	-15
C=CCN1C(=O)/C(=C\c2ccco2)C(C(=O)OC)=C1C	5.0	6	5	3.3	0	6	i	1	-2.0	11
Cc1cccc(OCC(=O)NNC(=O)c2cccs2)c1	-1.1	4	3	-0.6	.	-14	.	-2	-0.9	-5
